# From PubChem
# Ecoli rRNA inh: inhibitors of bacterial rRNA selective over humanized ribosomes; GFP signal change (wild-type ribosome), % (concentration not given with the values); actives 1.6% (n = 350,000); E. coli WT GFP vs humanized-ribosome RFP mutants, fluorescence, 24 h; stronger effect = lower value; DMSO median 0, no signal -100;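 active = significant combined selectivity score with lowered wild-type GFP, culture density cut under 30%, mutant RFP and density less affected; inactive = any of these conditions unmet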; note: one replicate is shown; some compounds called inactive have numbers as strong as hits
# E coli growth: blocks Escherichia coli growth; OD600, 23 h; stronger effect = lower value; AID 1053175; actives 0.21% (n = 330,000); OD600 absorbance (concentration not given with the values);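 active = OD600 absorbance below the run mean of sample wells minus 3.6 SD, in any replicate, cut at about 0.56 in these data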;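 note: stock transfer was 300 nL into about 60 µL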
# FGF22 binding: binders of recombinant human FGF22 by thermal shift; actives 1.5% (n = 340,000); Q9HCT0; SYPRO orange fluorescence; percent of sucrose octasulfate shift, DMSO zero; calls only at 9.99 µM; AID 651658;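 active = melting point raised past a set limit in the mean and every replicate; three in four hits are not shown here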
# Target sequence (Q9HCT0 whole entry, looked up): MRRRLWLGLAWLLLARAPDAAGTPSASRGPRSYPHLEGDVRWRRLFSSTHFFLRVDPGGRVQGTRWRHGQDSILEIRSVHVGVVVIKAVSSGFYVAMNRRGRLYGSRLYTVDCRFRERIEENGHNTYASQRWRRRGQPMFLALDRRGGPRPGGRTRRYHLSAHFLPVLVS
# Vif TR-FRET: inhibitors of Vif binding to APOBEC3G peptide, primary screen, biochemical, TR-FRET, GST-Vif 1-94, biotin-A3G peptide, dose response retest (AID 1117319). one-dose inhibition, %; IC50 in µM for titrated hits. actives 0.57% (n = 260,000). TR-FRET GST-Vif / biotin-A3G peptide binding; higher % means a stronger effect; test concentration not given here; strong numbers were not always called active;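 active = above the screen mean plus three standard deviations and confirmed in dose response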;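 note: Vif residues 1-94 fused to GST binding biotinylated APOBEC3G peptide 110-148; 0% = full assay without inhibitor and 100% = GST in place of GST-Vif; retest series ran down from 100 µM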
# HNF4A DNA FP: change in binding of human HNF4 alpha to DNA; AID 1224865; actives 0.3% (n = 360,000); P41235; HNF4a-FITC DNA binding, fluorescence polarization, 1 h; activity change, % at 10 µM; in the data active = activity change above about 30%, passing the limit was not always enough;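 note: controls were the assay level and a saturating level of protein; the project sought stronger binding though the title names inhibitors; some compounds called inactive have numbers as strong as hits; positive values seem to mean higher polarization but the record does not say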
# Target sequence (P41235 whole entry, looked up): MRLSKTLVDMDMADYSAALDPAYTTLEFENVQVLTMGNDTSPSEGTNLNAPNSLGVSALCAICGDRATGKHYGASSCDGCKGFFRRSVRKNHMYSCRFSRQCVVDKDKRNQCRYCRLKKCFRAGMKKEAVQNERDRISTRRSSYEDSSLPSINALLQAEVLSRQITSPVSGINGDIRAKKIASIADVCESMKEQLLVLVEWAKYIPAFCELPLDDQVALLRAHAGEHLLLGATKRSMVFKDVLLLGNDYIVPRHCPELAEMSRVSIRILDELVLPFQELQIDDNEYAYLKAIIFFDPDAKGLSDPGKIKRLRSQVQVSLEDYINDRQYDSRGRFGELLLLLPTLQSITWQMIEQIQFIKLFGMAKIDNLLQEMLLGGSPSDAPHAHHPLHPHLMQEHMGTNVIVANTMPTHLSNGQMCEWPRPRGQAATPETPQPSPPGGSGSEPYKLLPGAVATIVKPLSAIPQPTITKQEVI
# ALR H2O2 inh: blocks human ALR sulfhydryl oxidase activity; purified ALR, DTT oxidation, H2O2 HRP-luminol luminescence; inhibition, % (test concentration not listed); actives 3.8% (n = 290,000); AID 485317;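 active = mean and each replicate at 75% or more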;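 note: stock transfer was 7.5 nL into about 7.5 µL; 0% = neutral wells and 100% = wells with inactivated enzyme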
# Target sequence (P55789 whole entry, looked up): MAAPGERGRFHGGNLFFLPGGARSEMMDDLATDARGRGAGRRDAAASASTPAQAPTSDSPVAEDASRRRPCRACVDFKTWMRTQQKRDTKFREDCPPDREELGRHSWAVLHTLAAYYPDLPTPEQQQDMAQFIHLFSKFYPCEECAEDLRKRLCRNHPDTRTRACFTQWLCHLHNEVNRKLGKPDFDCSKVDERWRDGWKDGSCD
# MLL AF4-AF9 inh: inhibitors of human MLL-AF4/AF9 interaction. P42568. AlphaScreen, biotin-AF4 peptide binding to FLAG-AF9. inhibition, % at 10 µM. actives 0.47% (n = 350,000);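 active = every replicate reaching a set inhibition limit, whatever the replicate mean, cut at about 25% in these data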;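 note: 0% = plate neutral control median and 100% = total signal loss; the record names both 10 and 1 µM as test concentration; the first replicate is given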
# Ecoli rRNA inh OD600: also measured in Ecoli rRNA inh; calls as there; OD600 change, %; measured here: OD600 growth;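 optical density of the mix in the first replicate; 0 = DMSO median and -100 = no signal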
# Ecoli rRNA inh RFP: also measured in Ecoli rRNA inh; calls as there; RFP signal change, %; measured here: RFP humanized mutant strains;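 first replicate; 0 = DMSO median and -100 = no signal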
# Numbers without * were called inactive; i = inactive; / = not tested or not shown; & = joins results of further samples. A portion of the library (hit frequency here may not be typical).
# Codes: A = Ecoli rRNA inh; B = Ecoli rRNA inh OD600; C = Ecoli rRNA inh RFP; D = E coli growth; E = FGF22 binding; F = Vif TR-FRET; G = HNF4A DNA FP; H = ALR H2O2 inh; I = MLL AF4-AF9 inh
> CNNC(=S)NCCC1=CCCCC1
  A: 4	B: 2	C: 0.0	D: 0.64	E: i	F: -2%	G: -6.0	H: 0	I: -1.0
> O=C(COc1ccccc1)OCC(=O)c1c[nH]c2ccccc12
  A: -10	B: -4	C: 1.3	D: 0.59	E: i	F: -2%	G: 1.1	H: 6	I: -2.1
> COc1ccc(CNC(=O)CNC(=O)c2ccc(Br)o2)cc1OC
  A: 6	B: 11	C: 1.3	D: 0.69	E: i	F: /	G: -1.7	H: -7	I: 0.2
> CC(C)(C)n1nnnc1C(c1ccccc1)N1CCN(c2ccc(C(F)(F)F)cn2)CC1 (stereo not drawn)
  A: 5	B: 4	C: -0.2	D: /	E: i	F: /	G: -3.4	H: /	I: -1.5
> Cn1cc(C(=O)NS(=O)(=O)Nc2ccc(Br)cn2)c2ccccc21
  A: -1	B: 4	C: -2.1	D: 0.58	E: i	F: 9%	G: 1.7	H: -2	I: 1.5
> O=C(NCCc1ccc(Cl)cc1)c1cccc(S(=O)(=O)N2CCCC2)c1
  A: 0	B: -4	C: 2.8	D: /	E: i	F: 5%	G: 6.7	H: /	I: -9.6
> Cc1noc(C)c1S(=O)(=O)Nc1cccc2c1O[C@@H](CN(C)CC1CCCCC1)[C@@H](C)CN([C@H](C)CO)C2=O
  A: -1	B: -2	C: -0.9	D: /	E: i	F: /	G: /	H: /	I: -1.7
> Cc1cc(CN2C(=O)c3ccccc3C2=O)on1
  A: /	B: /	C: /	D: 0.74	E: /	F: -12%	G: 9.1	H: -9	I: /
> O=C(Nc1nc(-c2ccccc2)cs1)c1cccc(S(=O)(=O)N2CCN(Cc3ccccc3)CC2)c1
  A: /	B: /	C: /	D: 0.69	E: /	F: -2%	G: 2.7	H: -1	I: /
> O=C(N[C@@H]1CC[C@H](CCNC(=O)C2CC2)O[C@H]1CO)c1ccccn1
  A: 0	B: 4	C: -2.5	D: /	E: i	F: /	G: /	H: /	I: -1.4
> O=C(CS(=O)(=O)Cc1ccccc1)N1CCN(C(=O)c2ccco2)CC1
  A: /	B: /	C: /	D: 0.73	E: /	F: 10%	G: -5.9	H: -25	I: /
> Cc1ccc(S(=O)(=O)N(C)C[C@@H]2Oc3ccc(NS(=O)(=O)c4ccc(Cl)cc4)cc3CC(=O)N([C@@H](C)CO)C[C@@H]2C)cc1
  A: -3	B: -4	C: 0.2	D: /	E: i	F: /	G: /	H: /	I: -1.0
> NCC(c1ccccc1Cl)c1c[nH]c2ccccc12 (stereo not drawn)
  A: -18	B: -20	C: -4.9	D: 0.7	E: i	F: /	G: 5.4	H: 7	I: 10
> CCN(CC)c1c([N+](=O)[O-])c(=O)n(CC)c2ccccc12
  A: -35*	B: -23*	C: -11*	D: 0.63	E: i	F: -11%	G: -0.6	H: -5	I: 2.9
> COc1ccc2c(c1)[C@H]1[C@H](CO2)[C@H](c2ccccc2)[C@]2(C)C(=O)N(CC3CCCO3)CC(=O)N12 (stereo partly drawn)
  A: -5	B: -7	C: -4.1	D: /	E: i	F: /	G: 1.1	H: -2	I: 8.0
> CCN1CCN(C(=O)CSc2cc(=O)n(CC)c3ccccc23)CC1
  A: /	B: /	C: /	D: 0.71	E: /	F: -5%	G: 2.0	H: /	I: /
> O=C(Nc1ccc(NS(=O)(=O)c2ccc([N+](=O)[O-])cc2)cc1)c1ccco1
  A: -4	B: 16	C: -0.9	D: 0.69	E: i	F: 4%	G: 4.4	H: -29	I: -2.3
> C[C@H]1CN([C@@H](C)CO)C(=O)Cc2cc(NS(C)(=O)=O)ccc2O[C@H]1CN(C)S(=O)(=O)c1ccc(F)cc1
  A: 0	B: 7	C: -1.2	D: /	E: i	F: /	G: /	H: /	I: -3.1
> Cc1cccc(OC(C)C(=O)Nc2nccs2)c1 (stereo not drawn)
  A: -2	B: -4	C: -4.4	D: 0.71	E: i	F: /	G: 3.7	H: 0	I: 2.0
> Cc1noc(C)c1S(=O)(=O)N(C)C[C@@H]1Oc2ccc(NS(=O)(=O)c3ccccc3)cc2CC(=O)N([C@H](C)CO)C[C@@H]1C
  A: -2	B: 5	C: 3.3	D: /	E: i	F: /	G: /	H: /	I: 4.7
> Cc1ccc(C(=O)NCC(=O)OCC(=O)Nc2cc(C)c(C)cc2[N+](=O)[O-])cc1
  A: 7	B: 5	C: 1.9	D: 0.69	E: i	F: /	G: -0.8	H: -10	I: -2.4
> C[C@H]1CN([C@@H](C)CO)C(=O)Cc2cc(NC(=O)Cn3cnnn3)ccc2O[C@@H]1CN(C)C(=O)Nc1ccccc1
  A: 2	B: 6	C: 0.6	D: /	E: i	F: /	G: /	H: /	I: -2.4
> C[C@H]1CN([C@@H](C)CO)S(=O)(=O)c2ccc(C#CC3(O)CCCC3)cc2O[C@@H]1CN(C)C(=O)Cc1cccnc1
  A: 4&3	B: 11&0	C: -1.5&0.1	D: /	E: i	F: -6%	G: 1.9	H: /	I: -11&-0.7&1.4
> CC(=O)c1cccc(-c2ccnc3c2CC(C(=O)NCCC(F)(F)F)O3)c1 (stereo not drawn)
  A: 9	B: 7	C: 0.0	D: /	E: i	F: /	G: 3.0	H: /	I: -0.4
> CC(=O)NC12CC3CC(C1)CC(C(=O)N1CCN(S(=O)(=O)c4ccccc4[N+](=O)[O-])CC1)(C3)C2
  A: -10	B: -3	C: -2.2	D: 0.67	E: i	F: -8%	G: -1.4	H: -5	I: -0.4
> COc1ccc2oc(C(=O)OCC(=O)N3CCCC3=O)c(C)c2c1
  A: 6	B: 3	C: -0.4	D: 0.69	E: i	F: 11%	G: 3.8	H: /	I: -2.5
> CCN(CC)Cc1c(O)ccc2c(=O)c(Oc3ccccc3OC)coc12
  A: /	B: /	C: /	D: 0.65	E: /	F: -9%	G: 0.4	H: -5	I: /
> Cc1ccc(S(=O)(=O)N(C)c2ccc(OCC(=O)NCc3ccco3)cc2)cc1
  A: /	B: /	C: /	D: 0.72	E: /	F: 4%	G: 0.7	H: -6	I: /
> CCC(C)Nc1cc(C)c(C#N)c2nc3ccccc3n12 (stereo not drawn)
  A: 3	B: 0	C: 6.5	D: 0.64	E: i	F: 3%	G: 12	H: 36	I: -1.5
> Cc1nn(CC(=O)NNC(=O)c2ccc(Br)cc2)c(C)c1[N+](=O)[O-]
  A: 20	B: 15	C: 1.3	D: 0.71	E: i	F: /	G: 0.9	H: /	I: -2.6
> COc1ccc(CN(C)C[C@@H]2Oc3ccc(NC(=O)Nc4ccc5c(c4)OCO5)cc3CC(=O)N([C@@H](C)CO)C[C@H]2C)cc1
  A: -1	B: -10	C: 8.5	D: /	E: i	F: /	G: /	H: /	I: 27*
> O=[N+]([O-])c1ccc(N=NNc2ccccc2)cc1
  A: /	B: /	C: /	D: 0.66	E: /	F: -2%	G: 1.8	H: 18	I: /
> CCn1c(=O)cc(SCC(=O)NCc2ccc3c(c2)OCO3)c2ccccc21
  A: -2	B: 6	C: -2.8	D: 0.67	E: i	F: 8%	G: 2.9	H: -6	I: -103
> C/C(Cl)=C\Cn1c(N2CCCC2)nc2c1c(=O)n(C)c(=O)n2C
  A: -6	B: -1	C: 2.6	D: 0.65	E: i	F: -10%	G: 1.6	H: 39	I: 3.1
> COc1ccc2c(c1)OC[C@H]1[C@H]2N2C(=O)CN(Cc3ccc(Cl)cc3)C(=O)[C@@]2(C)[C@H]1c1ccccc1
  A: 7	B: 9	C: 0.4	D: /	E: i	F: /	G: 5.1	H: 3	I: 2.6
> C[C@@H]1CN([C@@H](C)CO)C(=O)c2cc(-c3cccc(C#N)c3)cnc2O[C@H]1CN(C)C
  A: 6	B: 3	C: 0.0	D: /	E: i	F: /	G: /	H: /	I: -4.6
> Cc1cc2ccccc2nc1SCC(=O)Nc1nc(-c2ccccc2)cs1
  A: /	B: /	C: /	D: 0.75	E: /	F: 6%	G: 0.2	H: -9	I: /
> CN1C(=O)c2cc(NC(=O)c3cccc(F)c3)ccc2OC[C@H]2O[C@H](CC(=O)NCc3ccccc3Cl)CC[C@@H]21
  A: -3	B: -7	C: -2.7	D: /	E: i	F: /	G: /	H: /	I: -0.7
> O=C(COC(=O)c1ccccc1)Nc1cccc(S(=O)(=O)N2CCCCC2)c1
  A: -11	B: -14	C: 0.0	D: 0.66	E: i	F: 6%	G: -1.2	H: /	I: 2.8
> CSc1nn(-c2ccc(C(=O)OCC(=O)NC(=O)NC(C)C)cc2)c(=S)s1
  A: /	B: /	C: /	D: 0.66	E: /	F: 0%	G: -6.2	H: /	I: /
> CCCNC(=S)Nc1ccc(Nc2ccccc2)cc1
  A: /	B: /	C: /	D: 0.69	E: /	F: 21%	G: -2.8	H: 99*	I: /
> O=C(N/N=C\c1ccc(-c2cccc(Cl)c2)o1)C(=O)NC1CCCC1
  A: 12	B: 18	C: -9.1	D: /	E: i	F: -1%	G: -0.9	H: 1	I: 0.2
> COc1ccc(CNC(=O)C2Cc3c(-c4ccc5c(c4)OCO5)ccnc3O2)cc1OC (stereo not drawn)
  A: -7	B: -13	C: 1.5	D: /	E: i	F: /	G: 2.8	H: /	I: 2.4
> O=C(NCC(c1ccco1)N1CCc2ccccc21)c1ccccc1 (stereo not drawn)
  A: -18	B: -20	C: -4.0	D: 0.68	E: /	F: 1%	G: -2.7	H: 96*	I: 13
> Cn1c(=O)cc(N)n(-c2ccccc2)c1=O
  A: 14	B: 9	C: 0.6	D: 0.67	E: i	F: 3%	G: 0.1	H: -7	I: -2.0
> C[C@@H]1CCCCO[C@@H](CN(C)C(=O)c2ccccc2)[C@H](C)CN([C@H](C)CO)C(=O)c2cc(NC(=O)Nc3cccc4ccccc34)ccc2O1
  A: 0	B: -5	C: -0.8	D: /	E: i	F: /	G: /	H: /	I: -3.5
> Cc1ccccc1S(=O)(=O)NCC[C@H]1CC[C@H](NS(=O)(=O)c2ccccc2C)[C@@H](CO)O1
  A: -6	B: -10	C: 0.2	D: /	E: i	F: /	G: /	H: /	I: 2.8
> COc1ccccc1C(=O)Nc1ccc2c(c1)CCCN2C(=O)c1ccccc1
  A: -8	B: -6	C: 0.9	D: 0.67	E: i	F: /	G: 4.4	H: 20	I: -0.8

# Sorted by molar mass (ascending): part of the list above.
# Codes: A = Ecoli rRNA inh; B = Ecoli rRNA inh OD600; C = Ecoli rRNA inh RFP; D = E coli growth; E = FGF22 binding; F = Vif TR-FRET; G = HNF4A DNA FP; H = ALR H2O2 inh; I = MLL AF4-AF9 inh
> Cn1c(=O)cc(N)n(-c2ccccc2)c1=O
  A: 14	B: 9	C: 0.6	D: 0.67	E: i	F: 3%	G: 0.1	H: -7	I: -2.0
> CCCNC(=S)Nc1ccc(Nc2ccccc2)cc1
  A: /	B: /	C: /	D: 0.69	E: /	F: 21%	G: -2.8	H: 99*	I: /
> O=C(N/N=C\c1ccc(-c2cccc(Cl)c2)o1)C(=O)NC1CCCC1
  A: 12	B: 18	C: -9.1	D: /	E: i	F: -1%	G: -0.9	H: 1	I: 0.2
> COc1ccccc1C(=O)Nc1ccc2c(c1)CCCN2C(=O)c1ccccc1
  A: -8	B: -6	C: 0.9	D: 0.67	E: i	F: /	G: 4.4	H: 20	I: -0.8
> O=C(COC(=O)c1ccccc1)Nc1cccc(S(=O)(=O)N2CCCCC2)c1
  A: -11	B: -14	C: 0.0	D: 0.66	E: i	F: 6%	G: -1.2	H: /	I: 2.8
> CSc1nn(-c2ccc(C(=O)OCC(=O)NC(=O)NC(C)C)cc2)c(=S)s1
  A: /	B: /	C: /	D: 0.66	E: /	F: 0%	G: -6.2	H: /	I: /
> COc1ccc(CNC(=O)C2Cc3c(-c4ccc5c(c4)OCO5)ccnc3O2)cc1OC (stereo not drawn)
  A: -7	B: -13	C: 1.5	D: /	E: i	F: /	G: 2.8	H: /	I: 2.4
